Source: PubChem BioAssay
Mtb hypoxia inh – Mtb hypoxia fluorescent reporter inhibition | 0.1% of 300,000 active | AID 1159583 | fluorescence inhibition, % (concentration not given with the values) | M. tuberculosis hypoxia-regulated fluorescent reporter, fluorescence;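 active = 35 to 45% if threefold the growth effect, above 45% if 1.5-fold the growth effect; inactive = the rest, general growth blockers included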;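 also: wells of about 50 µL received 100 nL stock; 0% = vehicle wells and 100% = reference inhibitor wells; whole bacteria with a GFP reporter of the hypoxia response; strong numbers were not always called active; many hits fall short of the cut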
Sa ugtP lethal – growth inhibition of S. aureus ugtP deletion strain; 0.54% of 330,000 active; S. aureus RN4220 ugtP deletion, OD600 growth, 16 h; some inactives read as strong as hits; growth inhibition, % (concentration not given with the values);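 active = z-score under -3 and OD600 up to 0.15 on both plates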;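 also: plate controls were untreated wells for no effect and antibiotic for full effect; wells of about 80 µL received 100 nL stock; the first replicate is given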
PrP UTR inh – suppresses PrP 5' UTR mRNA reporter expression; 0.35% of 340,000 active; cell-based PrP 5' UTR mRNA reporter, plate reader; AID 488862; inhibition, % (no concentration beside the values);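 active = every replicate at 50% or more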;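 also: 0 = median of the neutral control wells; tested in H4 reporter cells; numbers are from one replicate; inactives centre near -14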
BJeLR lethal – BJeLR cell viability loss; BJeLR (HRASV12) viability, CellTiter-Glo ATP luminescence, 48 h; reference of the scale not given here; inhibition, % (no concentration beside the values); 0.17% of 300,000 active;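 active = replicate mean above 50%; inconclusive = above 50% but judged a plate artefact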;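 also: 50 nL library stock added to about 25 µL; numbers are from one replicate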
Bead autofluor – flagged as autofluorescent in microsphere protease counterscreen. AID 624483. fluorescence intensity (test concentration not listed). compound autofluorescence counterscreen, microsphere flow cytometry; hits give high values. 3.1% of 360,000 active;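 active = at least 3 SD above the mean of all compounds, about 16000 in these data; inconclusive = too few beads counted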;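 also: 100 nL of 1 mM stock went into each well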
Sa RN4220 lethal – S. aureus RN4220 growth inhibition; 0.33% of 330,000 active; OD600, 16 h; inhibition, % (test concentration not listed);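 active = z-score of -3 or lower and OD600 up to 0.18 on both plates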;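 also: plate controls were untreated cells for no effect and reference antibiotic for full effect; stock transfer was 100 nL into about 80 µL; one replicate is shown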
Mtb hypoxia inh growth – second read-out of Mtb hypoxia inh, no call of its own (marks repeat the call); growth inhibition, %; measured here: M. tuberculosis growth (absorbance);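 0% = vehicle and 100% = reference antibiotic; read after six days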
The depositor's hits bear a star; ? = inconclusive; · = not tested or not shown.

SMILES	Mtb hypoxia inh	Mtb hypoxia inh growth	Sa ugtP lethal	PrP UTR inh	BJeLR lethal	Bead autofluor	Sa RN4220 lethal
CC1CC(C)CN(C(=O)CCC(=O)Nc2nnc(C(C)C)s2)C1 (centres undefined)	-15.2	-14.6	3.1	-13.7	-7.0	4072	2.3
CC(C)(C)c1ccc(C(=O)O)c(C(=O)c2ccccc2)c1	8.0	5.0	6.8	-3.6	·	4778	7.4
Cc1ccsc1/C=N\NC(=O)CC(=O)NCc1ccccc1	·	·	·	-33.1	1.2	4515	·
O=C(Nc1cccc(F)c1)c1cc(S(=O)(=O)NCCC2=CCCCC2)ccc1F	2.1	-1.8	-24.7	-3.2	3.3	2417	-10.0
COc1ccc(C)cc1NC(=O)CN(C)S(=O)(=O)c1cccs1	·	·	0.7	-14.1	6.1	4852	4.9
N#Cc1ccc(NC(=O)N2CCC(c3nc4c(nnn4Cc4cccc(Cl)c4)c(=O)[nH]3)CC2)cc1	-4.9	8.8	34.7	-10.2	-6.0	20736*	-2.0
COc1cccc(N(C(=O)C2CSC(=O)C2)C(C(=O)NC(C)(C)C)c2ccncc2)c1 (centres undefined)	-10.4	-2.0	0.1	-0.6	20.6	3483	1.5
CNCC[C@@H](Oc1ccccc1C)c1ccccc1	·	·	·	-22.4	2.9	6150	·
COc1cc(C(=O)Nc2ccc3c(c2)Cc2cc(NC(=O)c4cc(OC)c(OC)c(OC)c4)ccc2-3)cc(OC)c1OC	·	·	·	-14.7	13.2	8263	·
O=C(NCc1cccnc1)c1ccc(NS(=O)(=O)c2ccc(F)cc2)cc1	9.3	5.9	1.4	-13.5	10.9	?	-3.4
COc1cc2ccc(=O)oc2c(O)c1OCC=C(C)C	6.4	-4.3	4.5	2.2	-3.6	5447	4.1
CCOc1ccc(N(CC(=O)NCCSc2ccccn2)S(=O)(=O)c2ccc(Cl)cc2)cc1	-12.7	2.6	8.9	-3.9	-3.3	4155	-2.3
CC(C)CC(=O)NC(=S)NCc1ccccc1	16.3	12.9	23.5	-11.4	-2.4	2088	3.5
CC(C)C(=O)NC(=S)Nc1ccc(S(=O)(=O)NC(C)(C)C)cc1	·	·	10.1	-25.2	-3.8	2904	3.9
CCN(CC)S(=O)(=O)c1cc(NC(=O)c2ccc(Br)s2)ccc1C	-15.9	4.6	-18.4	-11.5	7.1	2027	3.0
COc1cc(Cl)ccc1OCc1cc(C(=O)NCCCN2CCCC2=O)no1	6.7	4.8	7.2	-13.7	-0.6	5012	4.9
CC(O)CN1CCN(C(=O)CN2C(=O)NC(c3ccccc3)(c3ccccc3)C2=O)CC1 (centres undefined)	13.4	15.6	9.2	-1.2	12.2	4025	1.2
C[n+]1ccn(CC(=O)c2ccc(Cl)cc2)c1	3.4	2.6	14.2	-29.0	3.0	1963	1.4
CC1CCN(C(=O)Cn2nnc(-c3ccc(C(C)C)cc3)n2)CC1	-5.0	-4.0	3.3	-15.8	-1.6	4220	-0.6
COc1c(C)cccc1C(=O)Nc1ccc(OCC(=O)N2CCOCC2)cc1C	3.5	-0.1	1.6	-20.8	-0.6	5012	1.1
CC1=Nc2cc(C(=O)N3CCCC3)ccc2Sc2c(C)ccc(C)c21	-7.2	4.8	-9.0	7.0	18.2	5797	4.2
COc1ccccc1NC(=S)NC(C)=O	14.8	9.0	5.9	3.1	5.8	4414	5.5
CCOC(=O)Cc1csc(NC(=O)Nc2ccc(C)cc2)n1	10.7	-2.5	-3.1	-19.4	-3.8	4535	2.3
O=S(=O)(N=C(c1ccc(F)cc1)N1CCCCC1)c1ccc(Cl)cc1	7.2	-1.9	-2.7	·	·	·	7.5
COc1ccc(CCN(C)CC(O)c2ccccc2)cc1OC (centres undefined)	8.8	10.8	0.8	-22.3	-11.8	4347	5.8
Cn1c(=O)c2c(nc(N/N=C/c3ccc(OC(=O)c4ccco4)cc3)n2Cc2ccccc2Cl)n(C)c1=O	·	·	·	0.2	-5.7	11478	·
O=C(NCc1ccccc1CN1CCCC1)c1cc2ccccc2o1	10.3	-2.6	5.4	4.1	·	3744	2.5
CCOC(=O)c1c(C)[nH]c(C(=O)COC(=O)c2ccc(N3CCCC3=O)cc2)c1C	10.1	9.7	1.8	-28.2	6.7	6650	0.8
COc1ccc(C(C)=O)cc1CSc1nc2nc(C)cc(C)n2n1	10.7	10.3	1.7	3.3	-9.3	4707	22.9
CC(=O)N1N=C(c2ccc(C)o2)CC1c1ccc(Br)cc1 (centres undefined)	7.4	0.5	3.8	-51.2	-17.2	8182	3.8

Sorted by length of the SMILES (rising): ten of the compounds above.
SMILES	Mtb hypoxia inh	Mtb hypoxia inh growth	Sa ugtP lethal	PrP UTR inh	BJeLR lethal	Bead autofluor	Sa RN4220 lethal
COc1ccccc1NC(=S)NC(C)=O	14.8	9.0	5.9	3.1	5.8	4414	5.5
C[n+]1ccn(CC(=O)c2ccc(Cl)cc2)c1	3.4	2.6	14.2	-29.0	3.0	1963	1.4
COc1ccc(CCN(C)CC(O)c2ccccc2)cc1OC (centres undefined)	8.8	10.8	0.8	-22.3	-11.8	4347	5.8
O=C(NCc1ccccc1CN1CCCC1)c1cc2ccccc2o1	10.3	-2.6	5.4	4.1	·	3744	2.5
CC(=O)N1N=C(c2ccc(C)o2)CC1c1ccc(Br)cc1 (centres undefined)	7.4	0.5	3.8	-51.2	-17.2	8182	3.8
COc1ccc(C(C)=O)cc1CSc1nc2nc(C)cc(C)n2n1	10.7	10.3	1.7	3.3	-9.3	4707	22.9
CC1=Nc2cc(C(=O)N3CCCC3)ccc2Sc2c(C)ccc(C)c21	-7.2	4.8	-9.0	7.0	18.2	5797	4.2
O=S(=O)(N=C(c1ccc(F)cc1)N1CCCCC1)c1ccc(Cl)cc1	7.2	-1.9	-2.7	·	·	·	7.5
CC(O)CN1CCN(C(=O)CN2C(=O)NC(c3ccccc3)(c3ccccc3)C2=O)CC1 (centres undefined)	13.4	15.6	9.2	-1.2	12.2	4025	1.2
Cn1c(=O)c2c(nc(N/N=C/c3ccc(OC(=O)c4ccco4)cc3)n2Cc2ccccc2Cl)n(C)c1=O	·	·	·	0.2	-5.7	11478	·

Later entries:
SMILES	Mtb hypoxia inh	Mtb hypoxia inh growth	Sa ugtP lethal	PrP UTR inh	BJeLR lethal	Bead autofluor	Sa RN4220 lethal
Cc1cc(=O)n2nc(N3CCCC(C(=O)NCc4ccc(F)cc4)C3)sc2n1 (centres undefined)	2.7	7.1	3.8	-14.1	-5.8	5940	1.7
O=C(O)CCCn1cc(NC(=O)COc2ccccc2F)cn1	-1.9	1.1	0.8	-7.4	5.6	3789	2.6
Cc1ccc(-c2c[n+](CC(=O)N3c4ccccc4Sc4ccccc43)c3n2CCC3)cc1	4.4	14.8	-13.2	-9.9	0.1	2524	19.5
CN(C)C(CNC(=O)Cc1ccc([N+](=O)[O-])cc1)c1ccccc1 (centres undefined)	6.3	-2.6	-0.6	-18.9	·	4765	-3.9
NC(=O)c1c(NC(=O)Cn2nc(C(=O)O)c3ccccc3c2=O)sc2c1CCC2	5.2	-3.5	4.2	-13.8	3.6	4430	1.9
Fc1ccc(/C=N/NC2=Nc3cccc4cccc2c34)cc1	·	·	·	-71.7	-4.8	10007	·
Cc1noc(C)c1CSc1nnc2scc(-c3ccccc3)n12	6.0	5.3	4.5	-8.6	-8.5	4272	6.1
CC(C)(C)NC(=O)Nc1ccc(F)c(Cl)c1	13.3	12.0	1.5	-10.3	6.1	2591	1.2
COc1ccc(-c2nc(CS(=O)CC(=O)NC3CCCCC3C)c(C)o2)cc1OC (centres undefined)	-1.9	3.8	4.9	-7.7	1.0	5377	2.0
C[N+](C)(C)CC(=O)O	7.7	2.6	-1.1	-9.1	·	5687	11.1
Cc1csc(NC(=O)CSc2nnc(CCNC(=O)c3cccs3)n2C)n1	0.3	-1.4	3.3	-17.5	-16.2	15777	2.0
COC(=O)c1ccccc1NC(=O)CN1CCC(NC(=O)c2ccc(C)cc2)CC1	4.3	5.7	20.3	-8.6	2.0	15837	9.5
CC(=O)Nc1ccc(C(=O)N2CC(=O)NC(=O)C2)cc1	4.1	3.0	4.5	-8.4	-3.6	3083	1.0
CCOc1ccc(N2CC(C(=O)Nc3cc(C)on3)CC2=O)cc1 (centres undefined)	-3.2	-9.2	7.1	-15.0	6.2	2004	2.7
N#Cc1cccc(S(=O)(=O)N2CCN(c3ccnc4cc(Cl)ccc34)CC2)c1	-0.2	-6.3	-3.8	-17.3	18.9	4759	1.2

Ordered by molar mass (rising): 3 of the compounds above
SMILES	Mtb hypoxia inh	Mtb hypoxia inh growth	Sa ugtP lethal	PrP UTR inh	BJeLR lethal	Bead autofluor	Sa RN4220 lethal
Fc1ccc(/C=N/NC2=Nc3cccc4cccc2c34)cc1	·	·	·	-71.7	-4.8	10007	·
CCOc1ccc(N2CC(C(=O)Nc3cc(C)on3)CC2=O)cc1 (centres undefined)	-3.2	-9.2	7.1	-15.0	6.2	2004	2.7
Cc1csc(NC(=O)CSc2nnc(CCNC(=O)c3cccs3)n2C)n1	0.3	-1.4	3.3	-17.5	-16.2	15777	2.0

Remaining list, next part:
SMILES	Mtb hypoxia inh	Mtb hypoxia inh growth	Sa ugtP lethal	PrP UTR inh	BJeLR lethal	Bead autofluor	Sa RN4220 lethal
CCOC(=O)C1(Cc2ccccc2)CCCN(C(=O)c2ccc(-n3ccnc3)cc2)C1 (centres undefined)	10.5	-18.5	5.5	-20.1	4.6	6872	6.3
CCOc1ccc(-n2c(SCC(=O)NCc3ccco3)nc3c([nH]c4ccccc43)c2=O)cc1	8.8	5.5	7.1	-6.1	-1.3	9371	6.5
Cc1ccccc1NC(=O)c1c2c(nc3ccccc13)CCC2	2.5	-0.3	8.3	-13.4	3.3	5335	6.1
O=C(CNS(=O)(=O)c1ccc(F)cc1)N1CCN(c2ccccc2)CC1	15.6	0.1	0.6	-13.2	1.4	5646	1.4
COCCN(C(=O)CSc1nnc(C)n1Cc1ccccc1)c1c(N)n(Cc2ccccc2)c(=O)[nH]c1=O	10.6	4.6	2.2	-9.1	-5.3	4184	7.7
CCOC(=O)c1ccccc1NC1CC(=O)N(c2ccccc2C)C1=O (centres undefined)	·	·	4.2	-13.1	-3.4	4809	1.1
COC(=O)C(NS(=O)(=O)c1cccc(S(=O)(=O)NC(C(=O)OC)c2ccccc2)c1)c1ccccc1 (centres undefined)	·	·	·	-24.1	-3.5	3741	·
COc1ccc(CCNC(=O)CN2C(=O)c3ccccc3C2=O)cc1	10.2	7.9	-0.3	-26.6	0.4	7117	1.8
Brc1ccc(C2=Nn3c(Cn4nnc5ccccc54)nnc3SC2)cc1	-8.8	-9.8	9.4	·	-8.0	3499	17.9
CC(=NNC(=O)c1ccc(CSc2nc(C)cc(C)n2)cc1)c1ccco1	-2.7	6.3	-5.4	·	·	·	-1.5
CCC(CC)C(=O)c1c[nH]c(C(=O)NCC2CCCO2)c1 (centres undefined)	·	·	6.6	-3.8	-0.5	2825	1.9
O=C(Nc1ccnn1C1CCN(C/C=C/c2ccccc2)CC1)c1ccccc1Cl	8.9	11.7	4.5	-28.0	1.4	56855*	2.1
O=C(c1ccc(OC2CCN(Cc3ccccc3C(F)(F)F)CC2)cc1)N1CCCCC1	-5.2	-8.7	7.8	-16.9	1.9	6099	3.8
O=C(O)c1cccc(NC(=S)NC(NC(=O)c2cccc([N+](=O)[O-])c2)C(Cl)(Cl)Cl)c1 (centres undefined)	-2.0	-7.9	-0.4	-15.5	-1.6	4919	4.5
CN1CC2C3C(=O)N(Cc4ccccc4)C(=O)C3[C@](C)(C1=O)N2C(=O)c1ccccc1 (some centres undefined)	19.8	0.8	2.7	·	·	·	5.6
COc1cc2[nH]c(=O)n(CCCCCC(=O)N3CCN(c4ccccn4)CC3)c(=O)c2cc1OC	-5.2	-7.4	10.7	-8.7	5.2	8140	2.5
CC1=NN(S(=O)(=O)c2ccc(Cl)cc2Cl)C(=O)c2ccccc2O1	-2.2	-2.6	0.5	-20.8	1.7	5143	1.9
COc1ccc(C=C(C#N)c2cccnc2)cc1OC	-0.8	12.8	-7.9	·	·	·	5.2
CNC(=O)c1nc(C)c(C2(C)CC(c3cccc([N+](=O)[O-])c3)=NO2)s1 (centres undefined)	20.3	11.4	3.6	-18.3	-5.6	3709	5.4
CS(=O)(=O)N1CCN(S(=O)(=O)c2ccccc2[N+](=O)[O-])CC1	·	·	·	-17.7	1.8	3319	·
O=C1OC(Nc2ccc(F)cc2F)c2ccccc21 (centres undefined)	·	·	-3.3	-21.3	2.4	2843	34.3
Cc1cc(OC(=O)c2c(F)cc(F)cc2F)nc(C)n1	-5.1	-6.9	2.4	5.6	1.8	2046	6.4
